RE007 growth inh: less growth of the S. pombe RE007 Vpr strain | S. pombe RE007 Vpr strain, BacTiter-Glo ATP luminescence, 24 h; control for the full effect not named in the record | Potency, µM (doses to about 92.2 µM), without a hit: at the top dose activity change, negative = less growth | 360,000 tested, 0.21% active; active = well fitted falling curve with a large enough effect; inconclusive = small, poorly fitted or top-dose-only effect; inactive = no such curve, though single readings can be large or run the other way;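 further: on the % scale 0 is the no-effect control and ±100 the full control effect; nearly all actives have a fitted effect of over 50% in size; the assay follows cell death caused by Vpr and the record does not say whether a fall means rescue or toxicity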
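Fission yeast strain RE007, carrying one chromosomally integrated HIV-1 vpr copy, was seeded at OD 0.01 in PMG+AL medium with 23 nL pinned compound. After 24 h at 30 °C and 99% humidity, viability was read by BacTiter-Glo luminescence.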
SARS PLP yeast: SARS-CoV PLP inhibition in yeast; Potency, µM (top dose mostly 32.9 µM), for the others: at the highest dose activity, positive = growth rescue; AID 485353; 330,000 tested, 0.19% active; S. cerevisiae expressing SARS-CoV PLpro, growth rescue; control for the full effect not named in the record; further: 0% is about no effect; nearly all actives have a fitted effect of over 55% in size; growth read by luminescence after 48 h
LASV entry inh: inhibitors of Lassa virus binding or cell entry | 300,000 tested, 1.2% active | Lassa virus pseudotype entry inhibition, cell reporter; control for the full effect not named in the record | Potency, µM (titrated, usually from 37.9 µM), for the others: at the top dose activity change, negative = inhibition, hits mostly inhibitors; active means well fitted inhibition curve with a large enough effect; inconclusive means small, poorly fitted or top-dose-only effect, or effect the other way; inactive means flat fitted curve, though single readings scatter; tested in HEK293 cells; further: on the % scale 0 is the no-effect control and ±100 the full control effect; nearly all actives have a fitted effect of over 50% in size; luciferase read-out
2A StopGo: FMDV 2A StopGo reporter, luciferase signal. human cells with a luciferase reporter of 2A StopGo recoding; control for the full effect not named in the record. Potency, µM (series often up to 57.9 µM), without a hit: at the highest dose signal change, negative = less light. 410,000 tested, 1.2% active. AID 1159524; active = well fitted falling curve with a large enough effect; inconclusive = small, poorly fitted or top-dose-only effect; inactive = no such curve, though single readings can be large or run the other way; tested in HEK293T cells; further: on the % scale 0 is the no-effect control and ±100 the full control effect; nearly all actives have a fitted effect of over 45% in size; luciferase light after 4 h
Cruzain Triton: blocks cruzain activity in presence of Triton detergent; Potency, µM, for inactives: max response, negative = inhibition, most hits filed as inhibitors; P25779; purified cruzain, Z-FR-AMC fluorescence, 0.01% Triton; 200,000 tested, 0.43% active; AID 1478; active means well fitted curve in the direction sought with a large enough effect; inconclusive means small, poorly fitted or top-dose-only effect, or another doubt; inactive means no such curve, though single readings can be large; an effect the other way counts as inactive or inconclusive;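 further: plate controls were neutral wells for no effect and buffer without enzyme for full effect; nearly all actives have a fitted effect of over 40% in size; top concentration of the series not given in the record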
Target sequence (P25779 123-467 limits assumed): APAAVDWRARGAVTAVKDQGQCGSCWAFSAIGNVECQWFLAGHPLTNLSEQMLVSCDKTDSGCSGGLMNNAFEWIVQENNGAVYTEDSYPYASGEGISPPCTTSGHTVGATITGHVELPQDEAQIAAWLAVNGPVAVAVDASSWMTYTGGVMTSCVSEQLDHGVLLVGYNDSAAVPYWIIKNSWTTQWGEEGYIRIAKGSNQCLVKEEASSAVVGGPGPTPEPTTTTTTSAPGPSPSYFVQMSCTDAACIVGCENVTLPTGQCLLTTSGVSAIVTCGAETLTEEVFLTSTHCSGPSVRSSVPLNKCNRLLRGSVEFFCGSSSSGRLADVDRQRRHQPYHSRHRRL
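Sodium acetate buffer (100 mM, pH 5.5) containing 5 mM DTT and 0.01% Triton X-100 hosted 1.5 nM cruzain and test compound for 15 min at room temperature. Cleavage of 2 uM Z-FR-AMC was then tracked by fluorescence.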
Marburg entry inh: Marburg virus entry inhibition; Potency, µM (doses to about 37.8 µM), for the others: top-dose activity change, negative = inhibition, usual class: inhibitors; 300,000 tested, 1.8% active; AID 540276; Marburg virus pseudotyped entry inhibition, cell reporter; control for the full effect not named in the record; about a third of the inactives were read at about 46 µM; active = well fitted inhibition curve with a large enough effect; inconclusive = small, poorly fitted or top-dose-only effect, or effect the other way; inactive = flat fitted curve, though single readings scatter; tested in HEK293 cells; about a fifth of its hits are not listed in these tables; further: on the % scale 0 is the no-effect control and ±100 the full control effect; luciferase read-out
NS1 function inh: inhibitors of influenza NS1 protein function; S. cerevisiae slowed by influenza A NS1, growth recovery by OD600; 270,000 tested, 0.4% active; Potency, µM (series often up to 46.1 µM), inactives show at the top dose activity, positive = more growth; AID 2326; further: actives are rising curves; nearly all actives have a fitted effect of over 50% in size
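Compounds were scored for reversing the slow growth caused by influenza A NS1 in S. cerevisiae, measured by optical density at 600 nm. Assay medium contained 2% galactose at pH 6.0; NS1-free yeast of the same strain were the positive control.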
Cruzain inh noDet: cruzain (T. cruzi) inhibition without detergent | Potency, µM, for inactives: max response, negative = inhibition, actives largely listed as inhibitors | P25779 | purified cruzain, Z-FR-AMC fluorescence, no detergent | 200,000 tested, 2.3% active | AID 1476; active means well fitted curve in the direction sought with a large enough effect; inconclusive means small, poorly fitted or top-dose-only effect, or another doubt; inactive means no such curve, though single readings can be large; an effect the other way counts as inactive or inconclusive;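 further: plate controls were enzyme without inhibitor for no effect and buffer without enzyme for full effect; nearly all actives have a fitted effect of over 40% in size; top concentration of the series not given in the record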
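Detergent-free condition (0.00005% Triton X-100) in acetate buffer pH 5.5 with DTT. 1.5 nM enzyme and compound were pre-mixed 15 min, then 2 uM Z-FR-AMC substrate added; reaction progress from fluorescence change between first and third reads (60 s).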
An asterisk follows results filed as active; [ ] = dose if it differs, or a comment. Unless noted, the call rests on the fitted dose curve; in most records, active means well fitted rising curve with a large enough effect; inconclusive means small, poorly fitted or top-dose-only effect; inactive means no such curve, though single readings can be large or run the other way. Potency means the concentration at half of the fitted maximal effect.

Results for Cc1cccc(C)c1NS(=O)(=O)c1ccc(OCCNS(C)(=O)=O)cc1 ?
RE007 growth inh: 5%; SARS PLP yeast: -3%; LASV entry inh: inconclusive; 2A StopGo: -13%; Marburg entry inh: -21%[46.1 µM]

Results for O=C(COc1ccc(Cl)cc1Cl)N1CCCCCC1 ?
RE007 growth inh: -4%; SARS PLP yeast: -7%; LASV entry inh: 18%; 2A StopGo: -2%; Cruzain Triton: -2.2%; Marburg entry inh: 16%; NS1 function inh: -9%; Cruzain inh noDet: 3%

How did O=C(Nc1nnc(-c2cc(Cl)ccc2Cl)o1)c1ccco1 do in these assays?
RE007 growth inh: 4%; SARS PLP yeast: -13%; LASV entry inh: -12%; 2A StopGo: -7%; Marburg entry inh: -29%[46.1 µM]

How did COc1ccc(CCNC(=O)c2ccc(CN3CCC(Cc4ccccc4)CC3)cc2)cc1 do in these assays?
RE007 growth inh: -4%; SARS PLP yeast: -2%; LASV entry inh: 16%; 2A StopGo: 0%; Cruzain Triton: 0.4%; Marburg entry inh: 19%; NS1 function inh: 10%; Cruzain inh noDet: 4%

How did Cc1ccc(NC(=O)N2CCCC2c2cccs2)cc1 (centres undefined) do in these assays?
RE007 growth inh: 2%; SARS PLP yeast: -3%; 2A StopGo: -3%; NS1 function inh: -1%

Results for CN1CCN(C(=O)c2ccc3c(c2)NC(=O)/C(=C/c2ccccc2)S3)CC1 ?
RE007 growth inh: -11%; SARS PLP yeast: 0%; 2A StopGo: -10%; NS1 function inh: -5%

What do the screens show for `O=C1C2C3c4ccccc4C(c4ccccc43)C2C(=O)N1CN1CCOCC1` (centres undefined)?
RE007 growth inh: 4%; SARS PLP yeast: -11%; LASV entry inh: inconclusive; Cruzain Triton: 3.3%; Marburg entry inh: 5%; NS1 function inh: -3%; Cruzain inh noDet: 1%

What do the screens show for `O=C1C2C3C=CC(C3)C2C(=O)N1c1ncn[nH]1` (centres undefined)?
RE007 growth inh: -16%; SARS PLP yeast: -3%; LASV entry inh: 8%; 2A StopGo: 6%; Cruzain Triton: 5.9%; Marburg entry inh: 12%; NS1 function inh: 5%; Cruzain inh noDet: 7%

Results for OC(c1ccccc1)C1CN(Cc2ccccc2)CCC1(O)c1ccccc1 (centres undefined) ?
RE007 growth inh: -3%; SARS PLP yeast: 1%; LASV entry inh: -9%; Cruzain Triton: -0.7%; Marburg entry inh: inconclusive; NS1 function inh: -1%; Cruzain inh noDet: 2%

What do the screens show for `COc1cc(/C=N/NC(=O)CCC(=O)Nc2ccc(F)cc2)ccc1O`?
RE007 growth inh: -3%; SARS PLP yeast: -1%; LASV entry inh: 13%; 2A StopGo: -2%; Marburg entry inh: -22%; NS1 function inh: 3%

How did Cc1ccc(C(=O)NC2CCCCCCC2)c(Cl)c1 do in these assays?
RE007 growth inh: -16%; SARS PLP yeast: 1%; 2A StopGo: -46%; NS1 function inh: 4%

Results for O=C(NC1CCCCCC1)c1ccc2c(c1)sc1nc(-c3ccccc3)cn12 ?
LASV entry inh: 8%[46.1 µM]; 2A StopGo: -1%; Cruzain Triton: -1.9%; Cruzain inh noDet: 7%

Results for CCc1nc(-c2cc(S(=O)(=O)N3CCN(c4ccccc4F)CC3)ccc2OC)no1 ?
LASV entry inh: -7%[46.1 µM]; 2A StopGo: -3%; Cruzain Triton: -0.7%; Marburg entry inh: -3%[46.1 µM]; Cruzain inh noDet: 16%

What do the screens show for `O=C1CCCCN1CCCC(=O)N1CCCC(Nc2ccccc2)C1` (centres undefined)?
RE007 growth inh: 3%; SARS PLP yeast: 1%; LASV entry inh: 4%; 2A StopGo: -5%; Marburg entry inh: 11%; NS1 function inh: -10%

What do the screens show for `CN(CC(=O)NCCc1ccccc1)S(=O)(=O)c1ccc(Br)cc1`?
RE007 growth inh: -10%[3.69 µM]; SARS PLP yeast: 3%; LASV entry inh: 3%; 2A StopGo: -2%; Cruzain Triton: 1.4%; Marburg entry inh: 0%; NS1 function inh: -5%; Cruzain inh noDet: -7%

What do the screens show for `COc1ccc2c(c1)c(C(=O)CN1CCN(Cc3ccccc3)CC1)c(C)n2C`?
RE007 growth inh: -9%; SARS PLP yeast: -1%; LASV entry inh: -3%; 2A StopGo: -1%; Marburg entry inh: -11%[46.1 µM]; NS1 function inh: -1%

Results for O=C1NC2(CCCC2)C(=O)N1CCS(=O)(=O)Oc1ccccc1 ?
RE007 growth inh: 34%; SARS PLP yeast: 1%; LASV entry inh: -2%; 2A StopGo: -18%; Marburg entry inh: 2%[46.1 µM]

What do the screens show for `COCCCn1c(C)nnc1-c1cnn(-c2ccccc2)c1N`?
RE007 growth inh: -2%; SARS PLP yeast: 3%; LASV entry inh: 11%[46.1 µM]; 2A StopGo: -8%; Marburg entry inh: 0%[46.1 µM]; NS1 function inh: 5%

Results for CC(=O)NS(=O)(=O)c1ccc(NC(=O)CCC2CCCC2)cc1 ?
RE007 growth inh: 6%; SARS PLP yeast: 9%; LASV entry inh: 3%; 2A StopGo: 1%; Cruzain Triton: 6.0%; Marburg entry inh: 1%[46.1 µM]; NS1 function inh: -10%; Cruzain inh noDet: -2%

Results for Cc1cc(C(=O)CSc2nc3ccccc3c(=O)n2C)c(C)n1Cc1ccc2c(c1)OCO2 ?
RE007 growth inh: -7%; SARS PLP yeast: 4%; LASV entry inh: inconclusive; 2A StopGo: inconclusive; Cruzain Triton: -1.5%; Marburg entry inh: inconclusive; NS1 function inh: 0%; Cruzain inh noDet: inconclusive

How did CN(C)c1cc[n+](CC(=O)c2ccc(Br)cc2)cc1 do in these assays?
RE007 growth inh: -18%; SARS PLP yeast: 0%; LASV entry inh: inconclusive; 2A StopGo: inconclusive; Marburg entry inh: -22%[46.1 µM]

What do the screens show for `COc1ccc(S(=O)(=O)N/N=C\c2ccccc2F)cc1`?
RE007 growth inh: -7%; SARS PLP yeast: -2%; LASV entry inh: -2%[46.1 µM]; 2A StopGo: 10%; Marburg entry inh: inconclusive; NS1 function inh: -7%

What do the screens show for `CCN(CC(=O)Nc1c(F)cccc1F)C(=O)c1ccc(=O)n(Cc2ccccc2)n1`?
RE007 growth inh: -15%; SARS PLP yeast: -6%; LASV entry inh: inconclusive; 2A StopGo: -13%; Marburg entry inh: 6%; NS1 function inh: 5%

Results for O=C(Nc1ccccc1O)c1c(O)c2c([nH]c1=O)CCCC2 ?
RE007 growth inh: 8%; SARS PLP yeast: -1%; LASV entry inh: inconclusive; 2A StopGo: -16%; Marburg entry inh: inconclusive; NS1 function inh: -1%

Results for Cc1cccc(CN2C(=O)c3ccccc3Sc3ccc(C(=O)NC4CCCCC4)cc32)c1 ?
LASV entry inh: 0%[46.1 µM]; 2A StopGo: -3%; Cruzain Triton: 1.0%; Cruzain inh noDet: 13µM*

Results for Cc1nc(N)nc(COc2ccccc2)n1 ?
RE007 growth inh: 1%; SARS PLP yeast: 0%; LASV entry inh: -2%; 2A StopGo: 68%[activator]; Marburg entry inh: inconclusive; NS1 function inh: -1%

What do the screens show for `Cc1cc[n+](Cc2ccc([N+](=O)[O-])cc2)cc1`?
RE007 growth inh: -12%; SARS PLP yeast: 2%; LASV entry inh: 4%; 2A StopGo: 0%; Marburg entry inh: 28%[46.1 µM]; NS1 function inh: 3%

Results for Cc1ccc(CCNC(=O)CN2C(=O)COc3ccccc32)cc1 ?
RE007 growth inh: -3%; SARS PLP yeast: 4%; LASV entry inh: inconclusive; 2A StopGo: -18%; Cruzain Triton: 1.3%; Marburg entry inh: -2%; NS1 function inh: -16%; Cruzain inh noDet: 4%

What do the screens show for `CC1(c2ccc(Cl)cc2Cl)NC(=O)N(CC(=O)NC2CCCCC2)C1=O` (centres undefined)?
RE007 growth inh: -4%; SARS PLP yeast: 4%; LASV entry inh: -11%; 2A StopGo: -18%; Marburg entry inh: 5%

Results for CCCCNC(=O)Cn1cnc2sc(C(=O)OCC)c(C)c2c1=O ?
RE007 growth inh: -3%; SARS PLP yeast: 8%; LASV entry inh: -7%; 2A StopGo: -10%; Cruzain Triton: 4.2%; Marburg entry inh: 6%[46.1 µM]; NS1 function inh: -7%; Cruzain inh noDet: -30%

Results for Cc1c(C(=O)c2ccc(Cl)c([N+](=O)[O-])c2)c2ccccn2c1CCC#N ?
RE007 growth inh: 3%; SARS PLP yeast: -20%; LASV entry inh: inconclusive; 2A StopGo: inconclusive; Cruzain Triton: -7.2%; Marburg entry inh: inconclusive; NS1 function inh: 8%; Cruzain inh noDet: -26%

What do the screens show for `CCOC(=O)C(NC(=O)CCl)(Nc1sc(C)c(CC)c1C#N)C(F)(F)F` (centres undefined)?
RE007 growth inh: -18%; SARS PLP yeast: 7%; LASV entry inh: inconclusive; 2A StopGo: inconclusive; Cruzain Triton: -0.6%; Marburg entry inh: -41%; NS1 function inh: -13%; Cruzain inh noDet: -13%

How did CCc1noc(C)c1C(=O)N1CCC(CCC(=O)Nc2cccc(OC)c2)CC1 do in these assays?
RE007 growth inh: 14%; SARS PLP yeast: 1%; 2A StopGo: -12%; NS1 function inh: -6%

What do the screens show for `COc1ccccc1NC(=O)c1cc2c(=O)n(Cc3cccs3)ccc2nc1C`?
LASV entry inh: -30%[46.1 µM]; 2A StopGo: -12%; Cruzain Triton: -4.2%; Cruzain inh noDet: inconclusive

Retrieved by structure from above (2):
What do the screens show for `CCN(CC(=O)Nc1c(F)cccc1F)C(=O)c1ccc(=O)n(Cc2ccccc2)n1`?
RE007 growth inh: -15%; SARS PLP yeast: -6%; LASV entry inh: inconclusive; 2A StopGo: -13%; Marburg entry inh: 6%; NS1 function inh: 5%

How did O=C(Nc1nnc(-c2cc(Cl)ccc2Cl)o1)c1ccco1 do in these assays?
RE007 growth inh: 4%; SARS PLP yeast: -13%; LASV entry inh: -12%; 2A StopGo: -7%; Marburg entry inh: -29%[46.1 µM]

High-throughput results as filed in PubChem.
